Screens as filed in PubChem BioAssay.
Lassa entry inh – Lassa virus entry inhibition. 300,000 compounds, 1.2% hits. Lassa virus pseudotype entry inhibition, cell reporter; control for the full effect not named in the record. Potency, µM (top dose mostly 37.9 µM), without a hit: top-dose activity change, negative = inhibition, usual class: inhibitors; active means well fitted inhibition curve with a large enough effect; inconclusive means small, poorly fitted or top-dose-only effect, or effect the other way; inactive means flat fitted curve, though single readings scatter; tested in HEK293 cells; further: on the % scale 0 is the no-effect control and ±100 the full control effect; nearly all actives have a fitted effect of over 50% in size; luciferase read-out
2A StopGo – lowers the luciferase signal of an FMDV 2A StopGo reporter | human cells with a luciferase reporter of 2A StopGo recoding; control for the full effect not named in the record | Potency, µM (top dose mostly 57.9 µM), for inactives: at the top dose signal change, negative = less light | 410,000 compounds, 1.2% hits; active = well fitted falling curve with a large enough effect; inconclusive = small, poorly fitted or top-dose-only effect; inactive = no such curve, though single readings can be large or run the other way; tested in HEK293T cells; further: on the % scale 0 is the no-effect control and ±100 the full control effect; nearly all actives have a fitted effect of over 45% in size; luciferase light after 4 h
Cruzain inh Det – blocks cruzain activity in presence of Triton detergent; purified cruzain, Z-FR-AMC fluorescence, 0.01% Triton; Potency, µM, for inactives: max response, negative = inhibition, most hits filed as inhibitors; 200,000 compounds, 0.43% hits;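 further: plate controls were neutral wells for no effect and buffer without enzyme for full effect; nearly all actives have a fitted effect of over 40% in size; top concentration of the series not given in the record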
Target sequence (P25779 123-467 limits assumed): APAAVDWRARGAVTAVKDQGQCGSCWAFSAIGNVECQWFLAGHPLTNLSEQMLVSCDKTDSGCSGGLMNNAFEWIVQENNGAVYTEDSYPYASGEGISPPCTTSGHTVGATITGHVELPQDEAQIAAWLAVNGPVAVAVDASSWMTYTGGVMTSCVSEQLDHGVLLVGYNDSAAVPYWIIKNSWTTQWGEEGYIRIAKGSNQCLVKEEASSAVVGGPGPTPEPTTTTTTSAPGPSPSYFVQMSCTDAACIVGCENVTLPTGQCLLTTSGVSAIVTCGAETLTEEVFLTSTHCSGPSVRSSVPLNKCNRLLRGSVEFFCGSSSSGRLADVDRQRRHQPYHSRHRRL
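Purified cruzain (1.5 nM final) was preincubated with compounds for 15 min at room temperature in 100 mM sodium acetate pH 5.5, 5 mM DTT, 0.01% Triton X-100. Reaction started with 2 uM Z-FR-AMC; AMC fluorescence change over 60 s gave activity.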
NS1 inh – influenza NS1 inhibition; S. cerevisiae slowed by influenza A NS1, growth recovery by OD600; 270,000 compounds, 0.4% hits; Potency, µM (doses to about 46.1 µM), for the others: at the top dose activity, positive = more growth; active means well fitted rising curve with a large enough effect; inconclusive means small, poorly fitted or top-dose-only effect; inactive means no such curve, though single readings can be large or run the other way; further: nearly all actives have a fitted effect of over 50% in size
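Recovery from NS1-induced slow growth read by OD600 in budding yeast switched to galactose assay medium (pH 6.0, -URA) at 1:100 dilution. Compound 23 nl per well; the matching strain lacking NS1 serves as control.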
MARV entry inh – blocks Marburg virus binding to or entry into cells. Marburg virus pseudotyped entry inhibition, cell reporter; control for the full effect not named in the record; about a third of the inactives were read at about 46 µM. Potency, µM (titrated, usually from 37.8 µM), inactives show at the highest dose activity change, negative = inhibition, usual class: inhibitors. 300,000 compounds, 1.8% hits; active = well fitted inhibition curve with a large enough effect; inconclusive = small, poorly fitted or top-dose-only effect, or effect the other way; inactive = flat fitted curve, though single readings scatter; tested in HEK293 cells; about a fifth of its hits are not listed in these tables; further: on the % scale 0 is the no-effect control and ±100 the full control effect; luciferase read-out
RE007 growth inh – less growth of the S. pombe RE007 Vpr strain | Potency, µM (doses to about 92.2 µM), without a hit: at the top dose activity change, negative = less growth | S. pombe RE007 Vpr strain, BacTiter-Glo ATP luminescence, 24 h; control for the full effect not named in the record | 360,000 compounds, 0.21% hits; active = well fitted falling curve with a large enough effect; inconclusive = small, poorly fitted or top-dose-only effect; inactive = no such curve, though single readings can be large or run the other way;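 further: on the % scale 0 is the no-effect control and ±100 the full control effect; nearly all actives have a fitted effect of over 50% in size; the assay follows cell death caused by Vpr and the record does not say whether a fall means rescue or toxicity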
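Fission yeast strain RE007, carrying one chromosomally integrated HIV-1 vpr copy, was seeded at OD 0.01 in PMG+AL medium with 23 nL pinned compound. After 24 h at 30 °C and 99% humidity, viability was read by BacTiter-Glo luminescence.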
Cruzain noTriton – blocks cruzain activity in detergent-free assay. P25779. purified cruzain, Z-FR-AMC fluorescence, no detergent. Potency, µM, for inactives: max response, negative = inhibition, hits mostly inhibitors. 200,000 compounds, 2.3% hits. AID 1476;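 further: plate controls were enzyme without inhibitor for no effect and buffer without enzyme for full effect; nearly all actives have a fitted effect of over 40% in size; top concentration of the series not given in the record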
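Purified cruzain at 1.5 nM, pre-incubated 15 min with compound at room temperature in 100 mM sodium acetate pH 5.5, 5 mM DTT, 0.00005% Triton X-100. Reaction started with 2 uM Z-FR-AMC; AMC fluorescence increase over 60 s gives rate.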
SARS PLP yeast – inhibitors of SARS-CoV papain-like protease in yeast; AID 485353; 330,000 compounds, 0.19% hits; Potency, µM (titrated, usually from 32.9 µM), without a hit: at the top dose activity, positive = growth rescue; S. cerevisiae expressing SARS-CoV PLpro, growth rescue; control for the full effect not named in the record; active means well fitted rising curve with a large enough effect; inconclusive means small, poorly fitted or top-dose-only effect; inactive means no such curve, though single readings can be large or run the other way; further: 0% is about no effect; nearly all actives have a fitted effect of over 55% in size; growth read by luminescence after 48 h
Starred values were filed as active, the others as inactive; ? = inconclusive; / = not tested or not shown; [ ] = remark or other dose. Unless noted, the call rests on the fitted dose curve; in most records, active means well fitted curve in the direction sought with a large enough effect; inconclusive means small, poorly fitted or top-dose-only effect, or another doubt; inactive means no such curve, though single readings can be large; an effect the other way counts as inactive or inconclusive. Potency means the concentration at half of the fitted maximal effect.

SMILES	Lassa entry inh	2A StopGo	Cruzain inh Det	NS1 inh	MARV entry inh	RE007 growth inh	Cruzain noTriton	SARS PLP yeast
COc1ccc(/C(N)=N/OC(=O)C2CCC(=O)N2S(=O)(=O)c2ccc(C)cc2)cc1OC (configuration not stated)	-2%	-30%	-3.0%	-2%	8%	22%	-2%	7%
Cc1cccc(OCCNC(=O)CCNS(=O)(=O)c2ccc3ccccc3c2)c1	-2%	22%	/	/	?	-3%	/	3%
COc1cccc(-c2cc(C(F)(F)F)nc(N3CCN(c4ccccc4)CC3)n2)c1	-5%	-8%	-5.1%	?	4%	-17%	-21%	3%
Cc1cccc(N(NC(=O)C(C)(C)O)C(=O)c2ccccc2)c1	-12%	-24%	2.1%	6%	15%	-7%	-5%	1%
O=C(CCN1C(=O)c2ccccc2C1=O)Nc1cc(F)ccc1F	-3%	11%	-2.9%	-6%	-2%	6%	-2%	12%
O=C(NNC(=O)C1CC1)c1ccc(F)cc1F	0%[46.1 µM]	-5%	/	/	-1%[46.1 µM]	-8%	/	5%
Cc1cc(NC(=O)COC(=O)C(C)Oc2ccc(Cl)cc2Cl)no1 (configuration not stated)	6%	-12%	/	-34%	1%[46.1 µM]	-5%	/	-18%
O=C1Nc2ccccc2C12Nc1ccccc1S2 (configuration not stated)	/	/	-0.7%	-7%	2%	/	25µM*	-4%
O=C(CSc1nnc(-c2ccco2)n1CC1CCCO1)N1CCCCC1 (configuration not stated)	17%[14.3 µM]	21%	5.0%	2%	18%	4%	-6%	1%
Cc1c(NC(=O)c2noc3c2CCc2ccccc2-3)c(=O)n(-c2ccccc2)n1C	/	51%[activator]	/	?	7%	6%	/	/
CCOC(=O)N1CCN(C(=O)c2cn(CC)c3ccc(S(=O)(=O)N4CCCC4)cc3c2=O)CC1	?	-9%	0.5%	-8%	?	9%	7%	/
Cc1ccc2oc(=O)c3cnn(CC(=O)N4CCCCCC4)c3c2c1	/	0%	-1.3%	-1%	/	-6%	-13%	-1%
CC12CCC(C(=O)NCc3ccc(Cl)cc3)(OC1=O)C2(C)C (configuration not stated)	13%	-14%	0.1%	-2%	-1%	-8%	-3%	9%
CCn1cc(C2=NCCO2)c2ccccc21	/	-12%	0.7%	-8%	-6%	2%	-3%	11%
Cc1cc(C)c(S(=O)(=O)N2CCOC2CNC(=O)C(=O)NCc2cccnc2)c(C)c1 (configuration not stated)	1%	-20%	1.3%	-45%	4%	-7%	2%	-10%

4 compounds from above, sorted by length of the SMILES, descending.
SMILES	Lassa entry inh	2A StopGo	Cruzain inh Det	NS1 inh	MARV entry inh	RE007 growth inh	Cruzain noTriton	SARS PLP yeast
Cc1c(NC(=O)c2noc3c2CCc2ccccc2-3)c(=O)n(-c2ccccc2)n1C	/	51%[activator]	/	?	7%	6%	/	/
Cc1ccc2oc(=O)c3cnn(CC(=O)N4CCCCCC4)c3c2c1	/	0%	-1.3%	-1%	/	-6%	-13%	-1%
O=C(CCN1C(=O)c2ccccc2C1=O)Nc1cc(F)ccc1F	-3%	11%	-2.9%	-6%	-2%	6%	-2%	12%
O=C(NNC(=O)C1CC1)c1ccc(F)cc1F	0%[46.1 µM]	-5%	/	/	-1%[46.1 µM]	-8%	/	5%

Additional records follow.
SMILES	Lassa entry inh	2A StopGo	Cruzain inh Det	NS1 inh	MARV entry inh	RE007 growth inh	Cruzain noTriton	SARS PLP yeast
Cc1ccc(C(=O)NCCC2=CCCCC2)cc1S(=O)(=O)N1CCCCC1	7.9µM*	-1%	/	/	?	-6%	/	-5%
O=S(=O)(c1cnc[nH]1)N1CCN(c2ccc(F)cc2)CC1	/	-7%	/	-1%	/	-2%	/	1%
COc1ccccc1N(CC(O)CN1CCCC1)S(=O)(=O)c1ccccc1 (configuration not stated)	15%[46.1 µM]	-1%	/	10%	?	-11%	/	-1%
CC(=O)/C(=N/Nc1cccc(Cl)c1)N1CCOCC1	-27%	-24%	-7.1%	-62%	?	80%	1%	-13%
CCN(CC)S(=O)(=O)c1ccc(N2CCOCC2)c(NC(=O)CCOc2ccccc2)c1	/	2%	/	-20%	/	14%	/	-4%
CSCCNC(=O)c1cccc(Cl)c1	3%	-9%	/	-1%	11%	13%	/	-2%
COCCN(C(=O)COC(=O)C1(C)CC1(Cl)Cl)c1c(N)n(Cc2ccccc2)c(=O)[nH]c1=O (configuration not stated)	-9%	-5%	/	4%	?	4%	/	2%
Oc1c(Cl)cc(Cl)cc1C=Nc1ccc(N2CCOCC2)cc1	19%	4%	/	2%	?	-11%	/	0%
COC(=O)c1ccc(Cn2nnc3ccccc3c2=O)o1	17%	/	-0.1%	-4%	-3%	7%	4%	-2%
CSc1nc(C)c2c(n1)N(c1ccc(C(F)(F)F)cc1)CC2	15%	2%	6.6%	7%	9%	13%	-16%	5%
Cc1cccc(Nc2nc(-c3cccs3)cs2)n1	?	-18%	-13%	23%	?	?	-25%	-114%
CCCOc1ccc(N2CC(C(=O)Nc3ccccc3F)CC2=O)cc1 (configuration not stated)	5%	36%[activator]	1.4%	-14%	-15%	10%	-7%	?
Cc1ccccc1OCCC(=O)OCC(=O)NCCc1ccccc1	12%	?	/	/	19%	0%	/	-5%
COc1cc2c(cc1OC)CN(c1nc(CN3CCCC3)nc3sc(C)c(C)c13)CC2	-5%	-9%	/	/	?	-10%	/	-3%
O=c1[nH]c(SCc2cccc(Cl)c2)nc2c1CCC2	-8%[46.1 µM]	-23%	-6.3%	/	17%[46.1 µM]	/	-4%	/
O=C(CN1C(=O)C2CCCCC2C1=O)Nc1nc(-c2ccccn2)cs1 (configuration not stated)	-26%	-22%	-5.9%	7%	-26%	-29%	0%	-11%
COc1ccc(-c2noc(-c3nnn(-c4ccc(C(C)C)cc4)c3C)n2)cc1OC	24%[46.1 µM]	?	2.2%	/	/	/	-8%	/
CN1Cc2c(N3CCOCC3)nc3sc(C#N)c(N)c3c2CC1(C)C	?	-22%	/	-5%	-10%[46.1 µM]	3%	/	1%
C=CCn1cc(C(=O)N2CCN(c3ccccc3)CC2)c(=O)c2cc(S(=O)(=O)N3CCCC3)ccc21	/	19%	/	1%	/	8%	/	-4%
COc1ccc2c(=O)c(-c3ccccc3)c(C)oc2c1	6%	49%[activator]	1.0%	-90%	?	-3%	-4%	6%
COc1ccc(-n2nnnc2SCC(=O)c2ccc(O)c(O)c2)cc1	-12%	-10%	3.7%	1%	-11%	6%	0%	4%
COc1ccccc1N1CCN(C(=O)c2cc(S(=O)(=O)N3CCCCC3)ccc2C)CC1	0%[46.1 µM]	?	/	/	?	2%	/	1%
Cc1ccc(C)c(S(=O)(=O)N2CCCOC2CNC(=O)C(=O)NCc2ccco2)c1 (configuration not stated)	-13%	-2%	-5.6%	-10%	-15%	20%	3%	-12%
Cc1nn(CC(=O)Nc2ccc(C(=O)N(C)C)cc2)c(=O)c2ccccc12	7%	1%	-5.6%	2%	-13%	-15%	-13%	6%
Cc1ccc(NN2C(=O)C=C(c3ccccc3)C2=O)cc1	?	20µM*	/	/	11µM*	?	/	-19%
CC1(C(=O)OCC(=O)Nc2cccc(S(=O)(=O)NC3=NCCCCC3)c2)CC1(Cl)Cl (configuration not stated)	24%[46.1 µM]	-20%	/	/	?	7%	/	3%
CCC(C)c1ccc(NC(=O)c2ccco2)cc1 (configuration not stated)	/	-41%	/	-140%	/	?	/	-20%
COc1ccc2oc(C(=O)NC3CCCCC3)c(C)c2c1	/	70%[activator]	/	12%	/	-10%	/	0%
CSC1=NC(=O)/C(=C/c2ccc(SC)cc2)S1	?	19%	/	/	-10%[46.1 µM]	-18%	/	-14%
COCCNC(=O)C(OC(=O)c1ccco1)c1ccccc1Cl (configuration not stated)	25%[46.1 µM]	-5%	/	-7%	0%[46.1 µM]	-7%	/	5%
Cc1c(N)cc(C(=O)N2CCOCC2)cc1[N+](=O)[O-]	-14%	-1%	-3.5%	4%	4%	52%	-11%	6%
O=C(NCC1CCCO1)c1ccc2nc(N3CCCCC3)sc2c1 (configuration not stated)	5%	26%	-3.2%	-38%	9%	4%	-14%	?
CCC(=O)Oc1c(Sc2ccc(Cl)cc2)c(C)nn1-c1ccccc1	16%[46.1 µM]	-20%	-2.0%	/	20%[46.1 µM]	/	-6%	/
Cc1cccc(N2CCN(S(=O)(=O)c3ccc(F)c(C(=O)Nc4cccc(Cl)c4C)c3)CC2C)c1 (configuration not stated)	-17%[46.1 µM]	-14%	0.8%	/	/	/	13µM*	/
COc1ccc(-c2nn(CCC(=O)O)cc2/C=N/NC(N)=S)cc1	0%	-9%	/	-2%	17%[46.1 µM]	9%	/	0%
CCOc1cc(/C=C2\C(=O)N(Cc3ccco3)C(C)=C2C(=O)OC)ccc1O	?	?	/	8%	?	8%	/	0%
CCOc1ccc(C2C(C#N)=C(N)N(N(C)C)C3=C2C(=O)CC(C)(C)C3)cc1 (configuration not stated)	-14%	-6%	/	-1%	2%[46.1 µM]	-8%	/	-1%

Single records, as listed above:
CCN(CC)S(=O)(=O)c1ccc(N2CCOCC2)c(NC(=O)CCOc2ccccc2)c1 in the list: Lassa entry inh: /; 2A StopGo: 2%; Cruzain inh Det: /; NS1 inh: -20%; MARV entry inh: /; RE007 growth inh: 14%; Cruzain noTriton: /; SARS PLP yeast: -4%
CCOc1cc(/C=C2\C(=O)N(Cc3ccco3)C(C)=C2C(=O)OC)ccc1O in the list: Lassa entry inh: ?; 2A StopGo: ?; Cruzain inh Det: /; NS1 inh: 8%; MARV entry inh: ?; RE007 growth inh: 8%; Cruzain noTriton: /; SARS PLP yeast: 0%
